TRPML1 inh – human mucolipin-1 channel inhibition. Q9GZU1. 0.02% of 390,000 active. TRPML1-inducible cells, Ca2+ dye fluorescence, FDSS; hits give low values; inhibition of EC80 agonist-evoked calcium signal. activity change, negative = inhibition, % (concentration not given with the values); in the data active means activity change below about -50%; inconclusive means about -30% to -50%; inactive means above about -30%;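 note: stimulus is agonist 54-4 at its EC80 concentration; % is set by controls: 0 for no effect and ±100 for the full control effect; compound concentration not given in the record; the text of the record puts the active cut at -80%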
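Tet-induced TRPML1-DL cells loaded with Ca8 no-wash calcium dye were read kinetically on FDSS. Compound addition was followed by EC80 agonist 54-4 (4 uM final); inhibition was read over 110 s.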
Sfp inh – blocks B. subtilis Sfp PPTase activity; AID 1490; 3.5% of 310,000 active; Biochemical Sfp PPTase activity, qHTS; Potency, µM, for the others: max response, negative = inhibition, usual class: inhibitors; active = well fitted inhibition curve with a large enough effect; inconclusive = small, poorly fitted or top-dose-only effect, or another doubt; inactive = no such curve, though single readings can be large or run the other way;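 note: the enzyme is Sfp with the accession as filed and its product quenches rhodamine fluorescence; potency is the fitted concentration of half-maximal effect; 0% = enzyme reaction without inhibitor and -100% = no enzyme wells; top concentration of the series not given in the record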
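Sfp 15 nM + cpd, 15 min RT; start w/ rhodamine-CoA 5 uM, BHQ-2-YbbR 12.5 uM (final); 50 mM Hepes pH 7.6, 10 mM MgCl2, 0.01% NP-40, 0.01% BSA; read 525/598 nm at 0 and 30 min.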
TRPV1 potentiator – enhances activation of the human vanilloid receptor TRPV1; Q8NER1; TRPV1-expressing cells, Fluo-8 calcium influx, capsaicin EC20 potentiation; host cell line not named in the record; control for the full effect not named in the record; potentiation, % at 8.33 µM; 0.02% of 320,000 active; AID 540277; active means potentiation above 80%; inconclusive means 30% to 80%; inactive means below 30%; note: 0% is about no effect
Target sequence (Q8NER1 whole entry, looked up): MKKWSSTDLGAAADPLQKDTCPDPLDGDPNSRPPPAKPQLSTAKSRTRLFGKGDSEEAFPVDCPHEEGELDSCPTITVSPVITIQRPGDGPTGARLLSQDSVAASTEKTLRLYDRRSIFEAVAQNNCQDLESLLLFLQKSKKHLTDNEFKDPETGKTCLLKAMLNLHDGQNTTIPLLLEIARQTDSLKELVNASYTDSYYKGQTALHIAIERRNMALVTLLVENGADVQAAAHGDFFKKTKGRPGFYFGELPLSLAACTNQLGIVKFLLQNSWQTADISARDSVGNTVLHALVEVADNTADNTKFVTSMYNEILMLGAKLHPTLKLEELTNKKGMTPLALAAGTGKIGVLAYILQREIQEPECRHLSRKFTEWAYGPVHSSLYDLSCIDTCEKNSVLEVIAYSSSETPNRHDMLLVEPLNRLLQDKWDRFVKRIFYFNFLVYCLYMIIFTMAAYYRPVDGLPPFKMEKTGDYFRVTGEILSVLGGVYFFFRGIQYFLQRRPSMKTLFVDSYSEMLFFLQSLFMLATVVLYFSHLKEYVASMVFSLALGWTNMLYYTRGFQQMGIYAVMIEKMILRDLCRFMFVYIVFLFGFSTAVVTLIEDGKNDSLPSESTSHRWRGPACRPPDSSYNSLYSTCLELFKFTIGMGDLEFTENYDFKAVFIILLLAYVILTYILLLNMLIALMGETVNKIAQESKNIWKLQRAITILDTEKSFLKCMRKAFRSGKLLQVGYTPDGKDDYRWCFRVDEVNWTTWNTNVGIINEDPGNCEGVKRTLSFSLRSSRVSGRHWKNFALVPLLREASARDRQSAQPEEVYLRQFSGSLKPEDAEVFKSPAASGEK
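Fluo-8 calcium influx in TRPV1-expressing cells, kinetic read (ex 480/em 520 nm). Compound added and read 3 min for agonist activity, followed by capsaicin at EC20 final and 2 min further read for enhancement.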
Menin MLL FP FL – inhibitors of human menin-MLL interaction, wild-type MLL peptide. Fluorescence polarization, fluorescein-MLL peptide displacement from menin. FP activity change, % at 61.4 µM. 290,000 tested, under 10 active; inconclusive = falling polarisation curve, or a change in total fluorescence; inactive = total fluorescence flat and polarisation flat or rising; no compound was filed as active; the % refers to the polarisation; negative = inhibition;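 note: % of control where 0% means no effect; inhibitors lower the polarisation; unlabelled MLL peptide was the positive control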
ClpP mod – qHTS Assay for Activators of ClpP; 1.9% of 340,000 active; AID 651965, 2013; purified B. subtilis ClpP, FRET peptide cleavage, 20 min; ATP-dependent Clp protease proteolytic subunit (Bacillus subtilis (strain 168)), P80244; Potency, µM (titrated, usually from 57.5 µM), without a hit: at the top dose activity change, negative = active; active = well fitted falling curve with a large enough effect; inconclusive = small, poorly fitted or top-dose-only effect; inactive = no such curve, though single readings can be large or run the other way; note: potency is the fitted concentration of half-maximal effect; the source files actives as falling curves though it sought activators and does not explain the sign; nearly all actives have a fitted effect of over 65% in size; many hits overshoot -100%
Target sequence (P80244 whole entry, looked up): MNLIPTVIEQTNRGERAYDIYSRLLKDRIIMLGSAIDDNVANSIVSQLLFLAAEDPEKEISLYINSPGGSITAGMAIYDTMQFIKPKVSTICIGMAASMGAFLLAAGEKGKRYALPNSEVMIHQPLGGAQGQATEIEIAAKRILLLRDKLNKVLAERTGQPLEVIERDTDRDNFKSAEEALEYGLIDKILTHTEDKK
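FRET quenching reversal measured ClpP activation: 10 microg/mL B. subtilis ClpP at pH 8 with the FRET-FV decapeptide, read at 430 nm after 320 nm excitation. The 20-min minus 0-min signal was scaled between DMSO/no-enzyme wells and ADEP (5.8 microM final).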
gsp ag – agonists of gsp mutant (McCune-Albright syndrome) | gsp mutant cells, cAMP HTRF, 30 min; control for the full effect not named in the record | Potency, µM (highest dose often 76.9 µM), for the others: at the highest dose activation (cAMP increase), most hits filed as activators | 0.13% of 340,000 active; active = well fitted activation curve with a large enough effect; inconclusive = small, poorly fitted or top-dose-only effect, or another doubt; inactive = no such curve, though single readings can be large or run the other way; cell line not stated here;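 note: phosphodiesterase inhibitor Ro 20-1724 added with compounds to block cAMP breakdown; potency is the fitted concentration of half-maximal effect; nearly all actives have a fitted effect of over 60% in size; about a fifth of the inactives were tested at one dose only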
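Cells in DMEM/10% FBS with G418 were pretreated with compounds in DMSO plus […] (300 uM stock) for 30 min at 37C. cAMP was measured by HTRF (cAMP-d2 plus anti-cAMP antibody-K) after 30 min at room temperature.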
gsp antag – antagonizes gsp, the McCune-Albright syndrome mutation | gsp-mutant cells, cAMP HTRF, 30 min; control for the full effect not named in the record | Potency, µM (titrated, usually from 76.9 µM), without a hit: at the highest dose activity change, negative = inhibition, actives largely listed as inhibitors | 0.4% of 340,000 active; active = falling curve of any shape with a large fitted effect; inconclusive = falling curve, mostly with a smaller effect; inactive = flat or rising curve; cell line not stated here;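 note: intracellular cAMP measured with PDE inhibitor Ro 20-1724 present during compound exposure; potency is the fitted concentration of half-maximal effect; % is set by controls: 0 for no effect and ±100 for the full control effect; nearly all actives have a fitted effect of over 65% in size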
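HTRF cAMP measurement after 30 min RT detection following 30 min, 37C compound treatment alongside […] (added as 300 uM solution) in G418-selected cells seeded at 2000/well and grown 16–24 h.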
Starred values were filed as active, the others as inactive; ? = inconclusive; nt = not tested or not shown; & = joins results of further samples; [ ] = dose if it differs, or a comment.

SMILES	TRPML1 inh	Sfp inh	TRPV1 potentiator	Menin MLL FP FL	ClpP mod	gsp ag	gsp antag
CC(C)(C)NS(=O)(=O)c1ccc(N2C(=O)c3ccccc3C2=O)cc1	44	13%	4	5.8	-0.1%	-17%	-29%
O=[N+]([O-])c1ccc(Nc2cccc3c2[nH]c2c(-c4ccccc4)nccc23)c([N+](=O)[O-])c1	-23	nt	nt	nt	-9.4%	-1%	-12%
COc1ccc2nc(SCC(=O)O)nc(C)c2c1	-10	?	30	14	28µM*	-9%	-4%
C#CCOCC1CNC(=S)O1 (stereo not given)	10	nt	nt	nt	0.4%	-22%	nt
Cc1cccc(C(=O)O[C@H]2[C@H](Cc3ccccc3)NS(=O)(=O)[C@H]3CC4C=C[C@]23O4)c1	-5	nt	nt	nt	-0.2%&2.7%	nt	-8%
Cc1ccc(S(=O)(=O)CCC(=O)OC2CC(C)OC2=O)cc1 (stereo not given)	-3	nt	nt	nt	-0.6%	-7%	-4%
COc1ccccc1C(=O)Nc1ccnn1C1CCN(C(=O)c2cnsn2)CC1	33	4%	3	nt	-0.5%	-20%[15.4 µM]	8%
CC(=O)c1c(C)[nH]c(C(=O)OCC(=O)NCc2ccc3c(c2)OCO3)c1C	17	nt	-3	nt	0.7%	-8%	-5%
Cc1cc(C)n(-c2ccc(C(=O)OCC(=O)c3c(N)n(C)c(=O)n(C)c3=O)cc2)n1	-8	0%	14	2.5	-1.3%	3%	-4%
CCOC(=O)C1=C(COC(=O)c2ccc(OC)c(OC)c2OC)NC(=O)NC1C (stereo not given)	-8	nt	8	nt	-2.8%	7%	-6%
COC(=O)C1=C(C(=O)OC)[C@@H]2N(C)c3ccc(OC)cc3[C@@]23C[C@@H](C(=O)OC)N=C3N1	18	-4%&5%	20	-2.4[11.7 µM]	0.4%	nt	-4%
CN(CC(=O)Nc1ccc(F)cc1)C(=O)c1cccc(S(=O)(=O)N2CCN(c3ccc(F)cc3)CC2)c1	1	nt	0	nt	0.9%	1%	-20%
C[C@@]12C(=O)N(CC3CCCO3)CC(=O)N1[C@@H]1c3ccccc3OC[C@@H]1[C@@H]2c1ccccc1 (stereo not given in full)	13	nt	nt	nt	-2.5%	nt	-9%
Cc1ccc(Cl)cc1N1CCN(S(=O)(=O)c2cn(C)cn2)CC1	6	12%	2	-5.5	-0.7%	8%	-4%
CCc1nnc(NC(=O)c2ccc(OC)c(S(=O)(=O)N3CCCC3)c2)s1	-11	nt	2	nt	-13%	6%	-6%
C=CCC(C)(NCc1ccccc1)c1ccc(C)cc1 (stereo not given)	5	16%	-3	5.1	1.0%	-43%[inhibitor]	14%
CCc1ccccc1NC(=O)c1cccs1	-4	3%	-9	0.0	-0.5%	0%	1%
COC(=O)Cn1c(N2CCCC2)nc2c1c(=O)n(C)c(=O)n2C	-14	29%	16	-3.1	-0.7%	13%	-16%
CC(NC(=O)Cc1ccccc1)C(c1ccccc1)N1CCOCC1 (stereo not given)	-5	11%	10	3.2	nt	6%	-6%
Cc1cc(/C=C2\C(=N)N3N=C(CC(=O)N4CCOCC4)SC3=NC2=O)c(C)n1Cc1ccccc1	4	28%	-2	7.8	-1.4%	6%	3%
CN(C)c1ccc(C=NNc2ccccn2)c(Cl)c1	10	nt	nt	nt	-28%	-22%	8%
CCN(CC(=O)Nc1ccccc1OC)CC(=O)Nc1c(Cl)ccc(C)c1Cl	30	6%	13	-1.1	1.1%	-9%[15.4 µM]	-10%
COc1cccc(CNC(=O)C2CCN(S(=O)(=O)c3ccccc3)CC2)c1	11	11%	-3	-0.2	-1.5%	1%	-12%
O=C(NN1C(=O)NC2(CCCCC2)C1=O)c1cc2ccccc2o1	7	nt	-6	nt	-5.4%	9%	6%
Cc1[nH]c2ccccc2c1/C=N/NC(=O)c1cccc(S(=O)(=O)Nc2cccc(C(F)(F)F)c2)c1	-7	22%	5	1.8	-3.7%	?	-2%

The listing continues:
SMILES	TRPML1 inh	Sfp inh	TRPV1 potentiator	Menin MLL FP FL	ClpP mod	gsp ag	gsp antag
CC1CC(=O)C(C(C2=C(O)CC(C)CC2=O)c2ccccc2)=C(O)C1 (stereo not given)	-3	nt	nt	nt	-3.0%	8%	1%
Cc1ccc(S(=O)(=O)CCC(=O)NNC(=O)CN(C)S(=O)(=O)c2ccc(C)cc2)cc1	-1	nt	nt	nt	-0.8%	-4%[15.4 µM]	7%
COCC(=O)Nc1ccc(Br)cc1C	-4	18%	2	5.5	nt	10%	10%
C=CCn1sc(N)c(C(=O)OCC)c1=S	-7	0%	-4	3.9	-0.4%	-43%[inhibitor]	6%
Cc1cc(Cl)ccc1OCC(=O)N/N=C/c1ccc(OC2OC(CO)C(O)C(O)C2O)cc1 (stereo not given)	9	3%	6	5.7	nt	5%[15.4 µM]	7%
O=C(N[C@@H](Cc1ccccc1)C(=O)CCl)OCc1ccccc1	-21	nt	-8	-2.2	-2.6%	nt	-14%
O=C(CN1C(=O)C2CC=CCC2C1=O)Nc1nnc(SCc2ccc(Cl)cc2)s1 (stereo not given)	2	3%	11	1.3	-0.2%	-14%	-16%
Cc1nc2c(Br)cc(Br)cc2c(=O)n1-c1ccccc1NC1OCC(O)C(O)C1O (stereo not given)	-9	nt	nt	nt	-12%	-10%	10%
CCc1ccccc1N(C)S(=O)(=O)c1ccc(-c2cc(C)no2)s1	3	6%	14	nt	0.4%	-10%	9%
COC(=O)c1ccc(CSC2=NC[C@@H]3[C@@H]4C(=O)N(Cc5ccccc5)C(=O)[C@@H]4[C@](C)(C(=O)OC)N23)cc1	-2	nt	nt	nt	2.8%	nt	-9%
COc1cccc(N2C(=O)/C(=C\c3cccs3)NC2=S)c1	1	-5%	7	-0.9	0.2%	4%	3%
Nc1ccc(C(=O)N/N=C2\CCCc3c2[nH]c2ccccc32)cc1	12	-4%	nt	4.2	?	12%	-29%
CC/C(=N\N=C(/CC)c1ccccc1N)c1ccccc1N	2	nt	nt	nt	nt	-22%	-6%
CC(C)(C)C1=Nn2c(nnc2-c2ccccc2F)SC1	26	19%	-10	2.3	-2.4%	0%	-8%
CCC(c1nnc(SCC(=O)Nc2ccc(Cl)cc2C(F)(F)F)n1C1CCCCC1)N(C)C (stereo not given)	-10	-6%	-5	-4.6	-2.3%	7%	2%
CCN(CC)c1ccc(C2CC(=O)Nc3cc(OC)c(OC)cc32)cc1 (stereo not given)	7	2%	-4	-0.7	1.3%	2%	-8%
COc1ccc2nc(N3CCCCC3)c(C#N)cc2c1	-12	79µM*	7	?	-28%	22%	-10%
CC(=C/c1ccco1)/C=N/NC(=O)c1ccncc1	0	-7%	7	3.1	nt	-8%[15.4 µM]	-27%
CCOC(=O)C1CCN(C(=O)COC(=O)CSc2ccc([N+](=O)[O-])cc2)CC1	12	nt	?	nt	2.8%	4%	-3%
CC1(C)CC(=O)C/C(=N/NC(=O)COc2ccc3ccccc3c2Br)C1	19	15%	2	nt	-1.3%	17%	-1%
Cc1csc(SCC(=O)Nc2ccc(S(=O)(=O)N3CCCC3)cc2)n1	-6	-4%	3	2.2	3.2%	-23%	-12%
CCCCN1C(=N)N([C@@H](CCC)CN2CCC[C@H]2CN2C(N)=NC[C@@H]2Cc2ccccc2)C[C@H]1Cc1ccccc1	6	nt	nt	nt	-1.1%	nt	0%
CC1(C)CC(=O)c2c(O)cc(OCC(=O)N3CCN(c4ccc(F)cc4)CC3)cc2O1	32	-7%	-23	-1.5	-0.8%	-33%[inhibitor]	-14%
CCCC(=O)Nc1ccc2c(c1)nc(CN1CCN(C(=O)OCC)CC1)n2CC	13	-1%	-10	4.8	-0.5%	2%	13%
CCOC(=O)c1ccc(Oc2nc(N(C)C)nc(N(C)C)n2)cc1	16	2%	14	0.0	-3.0%	-7%	-8%

Further structures follow:
SMILES	TRPML1 inh	Sfp inh	TRPV1 potentiator	Menin MLL FP FL	ClpP mod	gsp ag	gsp antag
O=C1OC(c2ccccc2)C(O)=C1c1ccccc1 (stereo not given)	-8	nt	nt	nt	0.5%	-4%[15.4 µM]	10%
Fc1ccccc1/C=N/n1cnnc1	-19	13%	0	-1.7	0.4%	0%	7%
Cc1c(/C(O)=C2\C(=O)C(=O)N(CCCN(C)C)C2c2ccncc2)cnn1-c1ccccc1 (stereo not given)	nt	22%	-1	3.7	nt	nt	nt
Cc1cc(C)cc(C(=O)Nc2nnc(SCC(=O)NCC3CCCO3)s2)c1 (stereo not given)	-7	8%	-7	-7.7	0.6%	-1%	-1%
Cc1ccc(NC(=O)COC(=O)CN2C(=O)COc3ccccc32)cc1	-3	-4%	-6	0.9	0.8%	-2%	-20%
CC(Cc1ccsc1)NC(=O)CCc1nnc(CCc2ccccc2)o1 (stereo not given)	21	15%	-4	-2.4	nt	-26%[15.4 µM]	2%
CCOC(=O)N1CCC(NCCNC(=O)c2cccc(F)c2)CC1	0	nt	-10	nt	1.3%	nt	10%
Cc1ccc(Nc2nnc(SCC(=O)Nc3cccc(S(=O)(=O)NC4=NCCCCC4)c3)s2)c(C)c1	5	-17%	3	1.3	1.7%	1%	-28%
C/C=C(\C)CN1CCN(c2ccccc2)CC1	0	10%	8	0.0	-1.5%	6%	-4%
CCOC(=O)c1[nH]c2ccc(F)cc2c1NC(=O)c1ccccc1C(=O)O	-7	-14%	-1	-11	4.3%	-11%	-21%
CCOC(=O)c1sc(NC(=O)C(CC)OC(=O)C(CC(C)C)NC(=O)c2ccccc2)nc1C (stereo not given)	-8	8%	-2	0.4	-2.8%	-24%	0%
CCc1c(C)nc2ncnn2c1NCCc1ccc(OC)c(OC)c1	43	15%	-10	1.0	1.3%	16%	?
COc1ccc(OCCCC(=O)OC(C)C(=O)Nc2ccc(S(N)(=O)=O)cc2)cc1 (stereo not given)	2	nt	3	nt	nt	28%[15.4 µM]	-6%
CCOC(=O)N1CCC(NC(=O)C(NC(=O)C2CCC(C)CC2)C(C)CC)CC1 (stereo not given)	nt	18%	-7	2.4	nt	nt	nt
CN1CCN(C(=O)c2ccc(OCCOc3ccccc3)cc2)CC1	5	13%	-9	0.9	1.2%	-19%	2%
CCC(C)c1ccc(OCC(=O)Nc2ccc(CN3CCOCC3)cc2)cc1 (stereo not given)	15	1%	-4	nt	2.0%	-6%	7%
Cc1cc(S(=O)(=O)NCC2CC2)c(Cl)cc1Cl	-12	8%	2	-6.3	-1.4%	-1%[15.4 µM]	-1%
O=C1OCC2=C1C(c1ccc(F)cc1)CC(=O)N2c1ccccc1 (stereo not given)	nt	3%	6	-0.5	nt	nt	nt
O=C(COC(=O)CCC1CCCC1)Nc1ccc(Cl)cn1	-4	4%	3	4.8	0.4%	12%	-4%

The order is random. Share with any hit: about 4.9%.
